Rango complex inh: qHTS Assay for Inhibitors of Rango (Ran-regulated importin-beta cargo) - Importin beta complex formation; Rango CFP/YFP FRET sensor + importin beta, 45 min; Potency, µM (titrated, usually from 92.2 µM), for the others: at the top dose inhibition of complex formation; 0.031% of 340,000 active; active = rising FRET ratio curve, often small or poorly fitted; inconclusive = mostly compound fluorescence or quenching in the first reads; inactive = flat curves in all reads;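 also: potency is read from the fitted curve at half-maximal effect; 0% = DMSO wells and 100% = buffer wells lacking importin beta; nearly all actives have a fitted effect of over 15% in size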
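FRET biosensor (snurportin 1 IBB flanked by EYFP and cerulean), 50 nM, with compound 5 min, then 0.125 microM importin beta in PBS, 1 mM DTT, 0.02% Tween-20, 0.1% BSA. CFP/YFP ratio read after 45 min at room temperature; pre-read flags interference.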
GLA inh pH 4.5: qHTS Assay for Inhibitors of Human alpha-Galactosidase at pH 4.5; 230,000 tested, under 10 active; AID 1467, 2008; purified enzyme, 4-MU-alpha-Gal fluorescence, pH 4.5; activity change, negative = inhibition, % at 105 µM; Alpha-galactosidase A (Homo sapiens), P06280; inconclusive = small, poorly fitted or top-dose-only inhibition, or a rising curve; inactive = flat fitted curve, though single readings scatter; no compound was filed as active;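 also: 0% = full activity with enzyme and -100% = basal without enzyme; dose as in the result columns while the protocol names 77 µM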
Target sequence (P06280 whole entry, looked up): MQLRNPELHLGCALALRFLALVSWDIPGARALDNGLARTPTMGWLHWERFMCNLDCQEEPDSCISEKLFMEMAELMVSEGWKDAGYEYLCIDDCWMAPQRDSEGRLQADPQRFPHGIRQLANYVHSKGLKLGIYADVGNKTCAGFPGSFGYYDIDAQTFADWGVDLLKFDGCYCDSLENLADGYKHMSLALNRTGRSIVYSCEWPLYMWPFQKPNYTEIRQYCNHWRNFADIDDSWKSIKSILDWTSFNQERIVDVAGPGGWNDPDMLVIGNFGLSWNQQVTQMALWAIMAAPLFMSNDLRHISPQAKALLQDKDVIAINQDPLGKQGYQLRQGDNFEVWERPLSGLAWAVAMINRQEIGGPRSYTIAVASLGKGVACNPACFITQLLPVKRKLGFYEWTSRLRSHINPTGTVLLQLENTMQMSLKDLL
Rango release inh: qHTS Assay for Inhibitors of RanGTP induced Rango (Ran-regulated importin-beta cargo) - Importin beta complex dissociation; Biochemical FRET Rango-importin beta, RanGTP-induced dissociation; Potency, µM (series often up to 46.1 µM), without a hit: top-dose activity change, negative = inhibition; 0.071% of 340,000 active; active means falling FRET ratio curve, often poorly fitted, with flat reads before Ran was added; inconclusive means other falling curves, or compound fluorescence or quenching; inactive means flat or rising ratio curve;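 also: potency is read from the fitted curve at half-maximal effect; % of control where 0% means no effect; nearly all actives have a fitted effect of over 45% in size; -100% = wells without RanGTP and RCC1; the record marks most hits as doubtful in a second field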
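Rango (0.1 uM)–importin beta (0.25 uM) complex; RanGTP-RCC1 trigger; 45 min RT; CFP/YFP FRET read.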
miR-21 reporter: qHTS Assay for Modulators of miRNAs and/orActivators of miR-21 | Potency, µM (series often up to 38.3 µM), inactives show at the highest dose reporter change, positive = more light | 340,000 tested, under 10 active | HeLa miR-21 FLuc reporter, luciferase, 48 h; active = well fitted rising curve with a large enough effect; inconclusive = small, poorly fitted or top-dose-only effect; inactive = no such curve, though single readings can be large or run the other way;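 also: % of control where 0% means no effect; miR-21 action dims this reporter so a rising signal means less miR-21 action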
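HeLa cells stably expressing CMV-driven firefly luciferase with a downstream miR-21 binding sequence, endogenously expressing miR-21, were treated with titrations (up to about 40uM final) for 48 hours at 37 degree Celsius. Luciferase luminescence was read after lysis.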
Numbers without * were called inactive; ? = inconclusive; . = no result given.

SMILES	Rango complex inh	GLA inh pH 4.5	Rango release inh	miR-21 reporter
CCCOc1ccc(-c2nn(-c3ccccc3)cc2/C=C2\SC(N)=NC2=O)cc1	?	-7	?	0%
COc1ccc(-c2nc(CS(=O)CC(=O)NC3CCCCC3C)c(C)o2)cc1 (stereo not drawn)	-0.3%	.	11%	-1%
Cc1ccc(Nc2nc(N)c3ccccc3n2)cc1C	0.2%	.	0%	26%
O=C(CCC(=O)N1CCSc2ccccc21)Nc1cccc(F)c1	0.6%	.	3%	6%
COc1ccccc1/C=N/NC(=O)c1nnn(-c2nonc2N)c1-c1ccccc1	0.6%	.	28%	.
O=C(N/N=C/c1c(O)ccc2ccccc12)c1cccc(C(F)(F)F)c1	?	-11	?	?
COc1ccc(N2CCN(C(=O)CCNS(=O)(=O)c3ccc(C)cc3)CC2)cc1	-1.0%	.	-1%	-5%
N#C/C(=C\c1ccc(C#N)cc1)C(=O)N1CCCC1	.	10	.	1%
CSCC[C@H](NC(=O)c1ccc(Cl)c([N+](=O)[O-])c1)c1nc2ccccc2[nH]1	3.6%	-12	-16%	2%
CC(=O)N1CCC(=NNc2ccnc3cc(Cl)ccc23)CC1	-2.8%	-10	-13%	-15%
CCOC(=O)c1ccccc1NC(=O)CN1C(=O)NC(C)(CCc2ccccc2)C1=O (stereo not drawn)	0.7%	.	-3%	.
CCOC(=O)C1CCN(C(=O)CSc2nc3ncccc3[nH]2)CC1	0.8%	.	16%	-1%
CSC1=NC(C(Cl)(Cl)Cl)N=C(c2ccc(C)cc2)N1 (stereo not drawn)	0.3%	-13	10%	22%
COc1ccc(OC2C(=O)N(Cc3ccc(F)cc3)C2c2ccc(OC)c(OC)c2)cc1 (stereo not drawn)	-6.4%	-6	10%	-4%
CCn1c(C)nc2cc(C(=O)N/N=C(\C)c3ccc(N4CCOCC4)cc3)ccc21	-1.4%	-3	5%	-41%
N/C(=N\OC(=O)c1ccco1)c1ccc(Cl)cc1	-0.3%	-2	-13%	-62%
CCOC(=O)N1CCC(N(CCN(C)C)C(=S)Nc2cc(Cl)ccc2C)CC1	-0.5%	-6	0%	28%
O=C(Cn1cc([N+](=O)[O-])cn1)NCc1ccccc1	?	.	13%	-7%
COc1ccc(CC(=O)Nc2ccc(-c3nnc(-c4ccccc4)o3)cc2)cc1OC	3.2%	2	7%	-21%
CC(Oc1ccc2c(-c3ccccc3)cc(=O)oc2c1)C(=O)NCc1ccccn1 (stereo not drawn)	-1.1%	.	3%	3%
Cc1ccc(C)c(N(C)S(=O)(=O)c2ccc3[nH]cc(C(=O)NCCN4CCOCC4)c(=O)c3c2)c1	3.2%	2	-2%	3%
COc1cccc(C(=O)NCCCNC(=O)c2cccc(OC)c2)c1	8.1%	.	-5%	-3%
CCc1cccc(C)c1NC(=O)COC(=O)Cn1c(C)csc1=O	3.2%	.	7%	.
C/C(N)=C(/C#N)C(=O)COC(=O)c1cc(-c2ccc(C)cc2)nc2ccccc12	-1.7%	7	14%	-5%
O=S(=O)(Nc1ccc2c(c1)oc1ccccc12)N1CCCC1	0.0%	-26	-25%	-37%
COC(=O)Cn1ncn2cccc2c1=O	2.4%	3	21%	2%
COc1ccccc1-c1noc(CCC(=O)Nc2ccccc2Cl)n1	-6.2%	-8	0%	-3%
COC(=O)Nc1ccc(S(=O)(=O)Nc2cc(C(F)(F)F)c[nH]c2=O)cc1	-1.0%	.	4%	-3%
COc1ccc(CN2C(=O)c3ccccc3C(/C=N\OCc3ccc(F)cc3)C2=O)cc1 (stereo not drawn)	0.0%	0	-1%	-13%
COc1ccc2c(c1)OC[C@H]1[C@H]2N2C(=O)c3cc(Cl)ccc3NC(=O)[C@@]2(C)[C@H]1c1ccccc1	-7.2%	.	-11%	.

Quoted at random: 5 records from the list.
SMILES	Rango complex inh	GLA inh pH 4.5	Rango release inh	miR-21 reporter
Cc1ccc(C)c(N(C)S(=O)(=O)c2ccc3[nH]cc(C(=O)NCCN4CCOCC4)c(=O)c3c2)c1	3.2%	2	-2%	3%
COc1ccccc1-c1noc(CCC(=O)Nc2ccccc2Cl)n1	-6.2%	-8	0%	-3%
O=S(=O)(Nc1ccc2c(c1)oc1ccccc12)N1CCCC1	0.0%	-26	-25%	-37%
COc1cccc(C(=O)NCCCNC(=O)c2cccc(OC)c2)c1	8.1%	.	-5%	-3%
CCc1cccc(C)c1NC(=O)COC(=O)Cn1c(C)csc1=O	3.2%	.	7%	.

Continuation.
SMILES	Rango complex inh	GLA inh pH 4.5	Rango release inh	miR-21 reporter
O=S(=O)(Cc1ccccc1)N1CCCCC1	-4.8%	-1	-5%	-5%
Nc1ccccc1CNc1nc(NCCO)nc2c1ncn2CCN1CCOCC1	-2.7%	6	0%	-16%
O=C(Nc1ccc(Cl)cn1)c1ccc(-c2ccc(Cl)c(Cl)c2)o1	-3.0%	.	-1%	.
CCOC(=O)N1CCN(C(=O)c2ccc3ccccc3c2)CC1	7.0%	.	13%	-6%
COc1ccccc1NC(=O)CSc1nnc(Cn2cnc3ccccc32)o1	1.8%	-7	11%	1%
O=C(CSc1ccc(-c2cccnc2)nn1)N1CCCCCC1	2.0%	-11	9%	-7%
O=C(CC1SCCNC1=O)Nc1cc(Cl)cc(Cl)c1 (stereo not drawn)	3.9%	1	-5%	-14%
O=C(Nc1nc2cc3c(cc2s1)OCO3)C1CC1	-1.3%	4	-5%	-34%
Cc1nnc(SCC(=O)O)o1	-2.2%	-1	-9%	0%
CC(C)CC(=O)Nc1cccc(C(=O)Nc2ccccc2C(=O)O)c1	1.8%	-3	21%	1%
Cc1ccc(C(C)NC(=O)CSc2ccc(S(=O)(=O)N3CCOCC3)cn2)cc1C (stereo not drawn)	0.2%	.	4%	.
COc1ccc2[nH]c(=O)c(CN(CC3CCCO3)C(=S)Nc3ccccc3)cc2c1 (stereo not drawn)	0.1%	4	9%	-11%
CCOC(=O)c1sc(N2N=C(C)C(N=Nc3cccc(C)c3)C2=O)nc1C (stereo not drawn)	4.4%	-3	-19%	-9%
CCC(=O)Nc1cccc(C2=NOC3(C2)C[C@@H](C(N)=O)N(C(=O)c2ccccc2C(=O)c2ccccc2)C3)c1 (stereo partly drawn)	-0.2%	1	2%	2%
COCCn1c(N)c(N(Cc2ccccc2)C(=O)CSCC(=O)Nc2ccc(C)cc2)c(=O)[nH]c1=O	-1.5%	.	1%	.

2 compounds from above, limited to GLA inh pH 4.5, miR-21 reporter and Rango complex inh.
Molecule	GLA inh pH 4.5	miR-21 reporter	Rango complex inh
COc1ccc2[nH]c(=O)c(CN(CC3CCCO3)C(=S)Nc3ccccc3)cc2c1 (stereo not drawn)	4	-11%	0.1%
CCOC(=O)c1sc(N2N=C(C)C(N=Nc3cccc(C)c3)C2=O)nc1C (stereo not drawn)	-3	-9%	4.4%

Next part.
SMILES	Rango complex inh	GLA inh pH 4.5	Rango release inh	miR-21 reporter
CCC(=O)N/N=C(\C)CC(=O)Nc1cc(Cl)ccc1C	?	0	20%	-12%
COc1ccc(C2=NN(C(N)=S)C(c3ccco3)C2)cc1 (stereo not drawn)	-1.2%	-9	8%	-39%
Cc1ccc(OCCCCN2CCc3ccccc3C2)c(C)c1	0.2%	.	-9%	6%
C/C(=N\Nc1ccc2nncn2n1)c1ccccn1	0.1%	-3	1%	15%
O=C(CSc1nnc(Cn2nnc3ccccc32)o1)Nc1ccc(Cl)cc1	-4.7%	-6	-8%	-3%
COCCCNC(=O)c1cn(C)c(=O)c2cc(OC)c(OC)cc12	1.3%	-6	-13%	-2%
Cc1onc(-c2ccccc2)c1C(=O)OCC(=O)NCc1ccc(F)cc1	3.4%	-1	10%	0%
Cn1nnnc1Sc1ncnc2scc(-c3ccc(-c4ccccc4)cc3)c12	?	.	-8%	.
O=S(=O)(Nc1ccccn1)c1ccc(C2CCCCC2)cc1	-0.1%	-10	-13%	-14%
CCCn1cc2c(c1-c1cccc(C)c1)c(=O)n(C)c(=O)n2C	1.2%	1	-7%	-6%
Cc1ccc(OCC(=O)Nc2ccc(F)cc2)c([N+](=O)[O-])n1	-3.1%	-1	31%	-77%
CN(c1ccccc1C(=O)Nc1ccc2c(c1)OCCO2)S(C)(=O)=O	-2.1%	-1	-5%	-3%
CCCCn1c(N)c(Sc2ccc(Cl)cc2)c(=O)[nH]c1=O	2.1%	4	10%	-4%
CCOC(=O)C1=C(C)NC(=S)N(C(C)=O)C1c1ccccc1 (stereo not drawn)	0.0%	-5	6%	9%
CC1(C)SC(=S)N(c2ccccc2)C1/[N+]([O-])=C/c1cccc([N+](=O)[O-])c1 (stereo not drawn)	-2.3%	-6	-2%	1%
C=CCNC(=O)CSc1nc2sc3c(c2c(=O)n1CCC)CCC3	0.6%	.	0%	-6%
CC(C)C1Cc2c(sc3[nH]c(=S)n(Cc4ccccc4)c(=O)c23)CO1 (stereo not drawn)	-0.6%	9	-2%	-1%
CCOc1cccc(C(=O)NC2CCCCC2)c1	-3.8%	-6	9%	-47%
O=C(Oc1ccccc1)c1ccc2c(c1)C(=O)N(Cc1ccncc1)C2=O	0.4%	1	15%	1%
CCCCN(CC)CCNC(=O)c1cc2cc3ccc(Cl)cc3nc2o1	1.3%	.	1%	-4%
Cc1ccc(OCC(=O)Nc2ccc(C)c(S(=O)(=O)N3CCCCC3)c2)c([N+](=O)[O-])n1	0.0%	1	15%	-6%
NS(=O)(=O)c1ccc(CCNC(=O)CCC(=O)c2cccs2)cc1	?	.	-29%	.
CCOC(=O)Cn1c(O)c(N=NC(=O)OC)c2ccccc21	0.0%	-2	-9%	0%
CCCNS(=O)(=O)c1cccc(C(=O)NNC(=O)c2cc(C)oc2C)c1	-0.3%	.	-9%	.
CN1CCN(CCC(=O)N/N=C/C=C2\N(C)c3ccccc3C2(C)C)CC1	?	-10	-22%	-8%
Cc1ccsc1C(=O)N(C)CC(=O)N(CC(C)C)c1c(N)n(CC(C)C)c(=O)[nH]c1=O	-0.2%	.	1%	.
Cc1ccc(S(=O)(=O)N2CCOCC2)cc1C(=O)NCc1cccnc1	-1.7%	6	8%	-5%

Ordered by molecular weight (smallest number first): part of the list above.
SMILES	Rango complex inh	GLA inh pH 4.5	Rango release inh	miR-21 reporter
CCOc1cccc(C(=O)NC2CCCCC2)c1	-3.8%	-6	9%	-47%
O=C(Oc1ccccc1)c1ccc2c(c1)C(=O)N(Cc1ccncc1)C2=O	0.4%	1	15%	1%
CN1CCN(CCC(=O)N/N=C/C=C2\N(C)c3ccccc3C2(C)C)CC1	?	-10	-22%	-8%

A portion of the library; count on the stated rates, not on these rows.
